Compound activity: PubChem, several laboratories
Vif TR-FRET = inhibitors of Vif binding to APOBEC3G peptide, primary screen, biochemical, TR-FRET, GST-Vif 1-94, biotin-A3G peptide, dose response retest (AID 1117319); inhibition, %; hits with a dose series show IC50 in µM; TR-FRET GST-Vif / biotin-A3G peptide binding; higher % means a stronger effect; test concentration not given here; strong numbers were not always called active; hit rate 0.57% among 260,000; Virion infectivity factor (Human immunodeficiency virus type 1 group M subtype B (isolate …;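 active = above the screen mean plus three standard deviations and confirmed in dose response; inconclusive = results disagree or hit not tested in dose response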;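 note: Vif residues 1-94 fused to GST binding biotinylated APOBEC3G peptide 110-148; 0% = full assay without inhibitor and 100% = GST in place of GST-Vif; retest series ran down from 100 µM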
Bfl-1 A1 inh = caspase 3/7 activation in MEF A1-2A-BIM cells, primary screen, A1 inhibitor project, cell-based, luminescence, HTS. Caspase-Glo 3/7 luminescence, 3 h; percent of clofoctol response, vehicle zero. caspase activation, % (test concentration not listed). hit rate 0.066% among 330,000;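 active = over half of replicate activation scores above 10%, or exactly half above 10 with the replicate mean above 10; inconclusive = replicate mean below 10 yet half the replicates above 10; inactive = over half of replicates below 10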;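 note: wells of about 30 µL received 50 nL stock; many hits fall short of the cut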
HNF4A DNA FP = change in binding of human HNF4A to DNA, primary screen, biochemical, fluorescence polarization, FITC-DNA | activity change, % at 10 µM | Hepatocyte nuclear factor 4-alpha (Homo sapiens), P41235 | 1 h | hit rate 0.3% among 360,000 | AID 1224865, 2016; in the data active = activity change above about 30%, passing the limit was not always enough;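 note: controls were the assay level and a saturating level of protein; the project sought stronger binding though the title names inhibitors; some compounds called inactive have numbers as strong as hits; positive values seem to mean higher polarization but the record does not say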
UCH37 DUB inh = inhibitors of human UCH37 deubiquitinase, primary screen, biochemical, Ub-AMC cleavage, fluorescence; purified proteasome/UCH37; inhibition, % (concentration not given with the values); hit rate 0.33% among 330,000; AID 588478, 2011;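 active = mean of two replicates above 20%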;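 note: 0% = compound-free wells with enzyme and 100% = wells lacking proteasome; stock transfer was 100 nL into about 20 µL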
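Schedule: 30 min plus 25 min, room temperature / Material: human UCH37 within purified proteasomes / Technique: AMC fluorescence intensity at 355/460 nm / Buffer or medium: pH 7.4 Tris-HCl (50 mM) with ovalbumin, ATP-MgCl2, DTT / Controls: wells without proteasome as full block, compound-free enzyme plus substrate as uninhibited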
B2AR ag = beta2AR agonists driving receptor internalization, primary screen, cell-based, FAP fluorogen, flow cytometry. Am2.2-beta2AR cells; reference of the scale not given here. response, % (test concentration not listed). hit rate 0.43% among 340,000. AID 504454, 2011;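 active = response above a set limit, near 3 SD of response in nonfluorescent compounds, cut at about 42% in these data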;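 note: stock transfer was 100 nL into about 11 µL; a reference agonist was the positive control; negative values mostly stem from fluorescent compounds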
Ecoli growth = E. coli growth inhibition, primary screen, OD600 | AID 1053175, 2014 | hit rate 0.21% among 330,000 | OD600 absorbance (concentration not given with the values) | Escherichia coli growth, 23 h; active compounds read low;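 active = OD600 absorbance below the run mean of sample wells minus 3.6 SD, in any replicate, cut at about 0.56 in these data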;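 note: stock transfer was 300 nL into about 60 µL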
LANA-H2A inh = blockers of LANA interaction with H2A/H2B – biochemical, FP readout, HTS, primary screen; inhibition, % (concentration not given with the values); cell-free LANA-H2A/H2B peptide, fluorescence polarization; hit rate 0.6% among 320,000; Protein LANA1 (Human herpesvirus 8 type P (isolate GK18)), Q9QR71; in the data active = inhibition mostly above about 10%, no sharp cut-off; inactive = mostly below about 6.7%;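 note: stock transfer was 7.5 nL into about 10 µL; 0% = median of vehicle wells and 100% = median of positive control wells; one replicate is shown; the record names a cut of 25% in any replicate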
Target sequence (Q9QR71 whole entry, looked up): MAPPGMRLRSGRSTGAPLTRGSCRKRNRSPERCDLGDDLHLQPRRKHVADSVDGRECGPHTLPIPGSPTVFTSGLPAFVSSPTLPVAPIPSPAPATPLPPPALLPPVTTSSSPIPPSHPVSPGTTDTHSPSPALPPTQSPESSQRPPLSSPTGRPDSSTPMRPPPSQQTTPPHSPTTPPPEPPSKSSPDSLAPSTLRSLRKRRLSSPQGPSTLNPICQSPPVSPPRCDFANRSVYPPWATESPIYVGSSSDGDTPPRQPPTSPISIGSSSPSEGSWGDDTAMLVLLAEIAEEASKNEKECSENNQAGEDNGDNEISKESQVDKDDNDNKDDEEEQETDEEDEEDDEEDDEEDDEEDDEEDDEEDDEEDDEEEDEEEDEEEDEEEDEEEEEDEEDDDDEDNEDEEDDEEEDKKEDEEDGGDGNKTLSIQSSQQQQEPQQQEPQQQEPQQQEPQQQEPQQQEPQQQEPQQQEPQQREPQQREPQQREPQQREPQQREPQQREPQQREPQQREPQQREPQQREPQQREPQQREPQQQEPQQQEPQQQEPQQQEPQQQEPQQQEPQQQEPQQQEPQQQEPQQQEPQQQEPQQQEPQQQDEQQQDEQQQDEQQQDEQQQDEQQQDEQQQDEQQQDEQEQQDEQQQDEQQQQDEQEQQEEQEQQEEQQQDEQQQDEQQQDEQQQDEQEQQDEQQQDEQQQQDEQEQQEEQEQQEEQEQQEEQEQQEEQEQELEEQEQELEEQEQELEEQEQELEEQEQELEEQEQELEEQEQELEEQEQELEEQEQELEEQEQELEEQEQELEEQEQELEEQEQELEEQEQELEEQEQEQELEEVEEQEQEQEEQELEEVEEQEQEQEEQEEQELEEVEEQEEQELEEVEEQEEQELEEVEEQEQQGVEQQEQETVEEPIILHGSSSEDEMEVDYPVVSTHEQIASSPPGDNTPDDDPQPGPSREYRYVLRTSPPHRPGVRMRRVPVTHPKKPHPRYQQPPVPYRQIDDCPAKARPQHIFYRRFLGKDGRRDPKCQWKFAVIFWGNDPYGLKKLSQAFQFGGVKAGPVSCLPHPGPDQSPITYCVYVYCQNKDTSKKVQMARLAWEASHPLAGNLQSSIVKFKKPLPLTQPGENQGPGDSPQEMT
Numbers without * were called inactive; ? = inconclusive; . = not tested or not shown; & = joins results of further samples.

SMILES | Vif TR-FRET | Bfl-1 A1 inh | HNF4A DNA FP | UCH37 DUB inh | B2AR ag | Ecoli growth | LANA-H2A inh
O=C(c1ccc(Cl)c(S(=O)(=O)N2CCOCC2)c1)N1CCN(Cc2ccccc2)CC1 | 4% | -0.3 | 0.1 | 1.4 | -7 | 0.72 | 1.9
Cc1ccc(S(=O)(=O)N(CC(=O)N2CCCC2)C2CCCCC2)cc1 | 2% | -0.1 | -1.6 | 2.0 | -6 | 0.68 | 0.5
O=C(c1cc2c(s1)-c1ccccc1OC2)N1CCCC1 | 2% | -0.4 | -2.8 | -466 | -16 | 0.7 | -5.6
O=C(N/N=C/c1cccc(OC(=O)c2ccccc2Cl)c1)c1cccnc1 | . | 0.1 | 0.0 | . | 3 | . | -1.5
O=C(Oc1ccc2ccc(OC(=O)N3CCCCCC3)cc2c1)N1CCCCCC1 | . | 0.2 | 1.5 | 0.9 | 21 | 0.72 | -5.0
COc1ccccc1N1CCN(CC(=O)Nc2ccc(C)c(F)c2)CC1 | 6% | -0.7 | 0.7 | 1.7 | -7 | 0.75 | 7.7
Cc1cc(NC2C3CC4CC(C3)CC2C4)n2nnnc2n1 (stereo unspecified) | -10% | -0.4 | 3.6 | 7.4 | -7 | 0.7 | -1.8
Cc1ccc(/C=N/NC(=O)Cn2cnc3c2c(=O)n(C)c(=O)n3C)s1 | 0% | -1.0 | -2.3 | . | -4 | . | 0.7
COc1cc(SC)ccc1C(=O)NCCCn1ccnc1 | 4% | 0.8 | -0.8 | 5.4 | -9 | 0.59 | -3.5
O=C(C[n+]1ccccc1)N/N=C/c1ccc(Cl)cc1 | 12% | -1.0 | 2.0 | . | -4 | . | -2.9
Cc1nc(C)n(CC(C)C(=O)N2CCN(S(=O)(=O)c3ccc(Cl)cc3)CC2)n1 (stereo unspecified) | . | -0.7 | 0.0 | 4.1 | -14 | 0.67 | 2.7
COc1ccccc1CCNS(=O)(=O)c1cn(C)nc1C | 4% | ? | -0.4 | -0.6 | -15 | 0.69 | -9.7
CCOC(=O)c1cc(C)sc1NC(=S)Nc1ccccc1 | 12% | 0.6 | -0.8 | 3.7 | -6 | 0.71 | -7.0
CN(C)S(=O)(=O)c1cccc(-c2nnc(SCCNCCO)n2-c2ccc(F)cc2)c1 | . | 0.9 | -1.1 | -0.2 | -8 | 0.62 | -7.0
CCN(CC)S(=O)(=O)c1cccc(C(=O)N[C@H](C(=O)OCC(=O)NC(=O)NC)C(C)C)c1 | -6% | -0.9 | -2.5 | -0.6 | 3 | 0.71 | 5.6
Clc1ccc(-[n+]2c(-c3cccc(Br)c3)[nH]c3nc4ccccc4nc32)cc1 | -8% | 0.4 | -0.3 | . | -2 | . | -1.3
CCCCOc1ccc(C(=S)N2CCC(C(N)=O)CC2)cc1 | 1% | -0.7 | -0.1 | 3.3 | -9 | 0.68 | -0.2
N#Cc1ccc(OCC(=O)NC(=O)NC2CCS(=O)(=O)C2)cc1 (stereo unspecified) | -7% | 0.3 | 2.4 | 1.8 | -2 | 0.62 | 1.6
Cc1onc(-c2ccccc2)c1C(=O)N1CCCN(C(=O)c2c(-c3ccccc3)noc2C)CC1 | 1%&-7% | -0.5 | 1.5 | 1.0 | -2 | 0.68 | 1.4
CC(=O)c1ccccc1OCC(O)CN1CCN(C(c2ccccc2)c2ccccc2)CC1 (stereo unspecified) | -11%&0% | 0.0 | 0.9 | 2.7 | 3 | 0.66 | -3.0
CCOC(=O)C1CCCN(c2c(N3CCOCC3)c(=O)c2=O)C1 (stereo unspecified) | -1% | 0.5 | 3.0 | 7.8 | 1 | 0.76 | -2.5
CCCc1[nH]nc2c1C1(CCOC1C)C(C#N)=C(N)O2 (stereo unspecified) | 21% | 0.1 | -1.7 | 1.0 | -1 | 0.72 | -5.7
COc1ccc(NS(=O)(=O)c2cccc(C(=O)NNC(=O)CNC(=O)c3ccccc3)c2)cc1 | -3% | 0.7 | 0.2 | 3.1 | 1 | 0.72 | -2.3
O=C(CCC(=O)Nc1cccc([N+](=O)[O-])c1)NCc1ccccc1 | 6% | -1.4 | -3.1 | 3.3 | 4 | 0.71 | -0.5
CCOc1ccc(-n2c(SCC(=O)Nc3ccc(OC)cc3)nc3c(c2=O)SCC3)cc1 | 9%&1% | 0.2 | -0.8 | 0.9 | -12 | 0.72 | -1.4
O=C(NCc1cccs1)C(=O)NCC(c1ccco1)N1CCN(c2ccccc2)CC1 (stereo unspecified) | 1% | -0.7 | -5.3 | 1.6 | -8 | 0.73 | 3.7
O=C(NCC(=O)N1CCN(S(=O)(=O)c2ccc3c(c2)OCCO3)CC1)c1ccccc1F | . | 0.2 | 1.6 | 4.4 | -10 | 0.71 | 4.8
Brc1ccc(-c2n(-c3ccccn3)c3ccccc3[n+]2-c2ccccn2)cc1 | ? | 0.3 | -4.8 | 1.3 | 6 | 0.63 | 5.0
O=S(=O)(c1ccc2c(c1)OCCO2)N1CCC(n2nnc3cc(F)ccc32)CC1 | 11% | -0.3 | 2.1 | 2.0 | 5 | 0.68 | -2.5
CCn1c(NC2CCCCC2)nc2ccccc21 | 8% | -0.2 | 4.2 | -2.0 | 1 | 0.74 | -4.7

A second format for some results above.
structure,Vif TR-FRET,Bfl-1 A1 inh,HNF4A DNA FP,UCH37 DUB inh,B2AR ag,Ecoli growth,LANA-H2A inh
O=C(CCC(=O)Nc1cccc([N+](=O)[O-])c1)NCc1ccccc1,6%,-1.4,-3.1,3.3,4,0.71,-0.5
CCOc1ccc(-n2c(SCC(=O)Nc3ccc(OC)cc3)nc3c(c2=O)SCC3)cc1,9%&1%,0.2,-0.8,0.9,-12,0.72,-1.4
O=C(NCc1cccs1)C(=O)NCC(c1ccco1)N1CCN(c2ccccc2)CC1 (stereo unspecified),1%,-0.7,-5.3,1.6,-8,0.73,3.7
O=C(NCC(=O)N1CCN(S(=O)(=O)c2ccc3c(c2)OCCO3)CC1)c1ccccc1F,.,0.2,1.6,4.4,-10,0.71,4.8
Brc1ccc(-c2n(-c3ccccn3)c3ccccc3[n+]2-c2ccccn2)cc1,?,0.3,-4.8,1.3,6,0.63,5.0

(cont.)
SMILES | Vif TR-FRET | Bfl-1 A1 inh | HNF4A DNA FP | UCH37 DUB inh | B2AR ag | Ecoli growth | LANA-H2A inh
CCOc1ccccc1NC(=O)C1CCN(C(=O)c2cccs2)CC1 | -4% | 2.1 | 0.6 | 1.9 | -5 | 0.68 | 1.9
C=CCNS(=O)(=O)CC12CCC(CC1=O)C2(C)C (stereo unspecified) | -2% | -0.7 | -1.4 | -1.4 | 0 | 0.73 | 1.3
Cc1cc(Cl)ccc1N=C1N=C(N)c2ccccc21 | . | 0.5 | 1.9 | 6.1 | -5 | 0.69 | 0.7
CC(C)CC1(C)N=C(c2ccccc2)C(=S)N1 (stereo unspecified) | 12% | -0.4 | 2.2 | 3.7 | -11 | 0.65 | -1.1
Cc1nnc(SCc2ccc(Cl)c(Cl)c2)s1 | -4% | -0.6 | 1.0 | 4.5 | -4 | 0.67 | -0.8
CC1CC(C)CN(CCCNC(=O)CC2Oc3ccccc3NC2=O)C1 (stereo unspecified) | 1% | 1.0 | 6.8 | 7.7 | 4 | 0.76 | 1.1
Cc1cc(C)n(-c2ccc3nncn3n2)n1 | 6% | 0.4 | -1.2 | 1.3 | -2 | 0.66 | 8.1
Cc1ccc(-n2c(CNc3ccc(F)cc3)nnc2SCC(=O)N2CCOCC2)cc1 | 27% | 0.0 | 1.6 | 3.2 | 1 | 0.74 | 3.5
COc1ccc(N2COC3c4cccc5cccc(c45)C32)cc1 (stereo unspecified) | 10% | -0.3 | -1.4 | 2.5 | 13 | 0.69 | -4.2
COc1ccc(-n2c(O)c(C=Nc3ccccc3)c3ccccc3c2=O)cc1OC | 3% | -0.4 | 7.8 | -4.3 | 2 | 0.66 | 1.4
O=C(c1ccc2ccccc2n1)N1CCN(c2ccccc2O)CC1 | 9% | -0.3 | -0.7 | -6.1 | -3 | 0.76 | -4.7
O=C(O)Cc1csc(NC(=O)CSc2nnnn2-c2ccc(O)cc2)n1 | -7% | 0.5 | -2.3 | 14 | 0 | 0.63 | 0.2
O=S(=O)(c1ccccc1)N1CN(c2ccc(F)cc2F)c2nc3ccccc3nc21 | . | -0.3 | -0.4 | -7.0 | . | 0.75 | 0.7
O=C1Nc2ccccc2N=C(c2ccccc2)c2ccccc21 | -21% | 0.5 | 3.8 | 2.2 | -1 | 0.63 | -5.8
CC(NC(=O)C1CCN(C(=O)[C@@H]2Cc3ccccc3CN2)CC1)c1ccccc1 (stereo partly specified) | . | 0.2 | -2.2 | -0.4 | 3 | 0.63 | -5.2
O=S(=O)(NCCN1CCOCC1)c1cccc(C(F)(F)F)c1 | 2% | 1.0 | -2.1 | 3.8 | 1 | 0.66 | -6.1
O=C1C=C(NC2CCCC2)CC(c2ccccc2)C1 (stereo unspecified) | -8% | -0.2 | -0.6 | 0.3 | 2 | 0.7 | -0.4
CC(=O)N1N=C(c2ccc(C)o2)CC1c1ccc(F)cc1 (stereo unspecified) | . | 1.3 | 0.9 | 0.5 | 1 | 0.62 | 3.5
Cc1nc(SCC(=O)Nc2ccc(F)cc2)c2oc3ccccc3c2n1 | -16% | 0.2 | -0.2 | 4.5 | -8 | 0.74 | 4.3
CN(Cc1nc(-c2cccnc2)no1)S(=O)(=O)c1ccccc1 | 70% | 0.8 | -0.4 | 0.8 | 4 | 0.68 | -2.8
O=S(=O)(c1ccc(-c2cc(C(F)(F)F)on2)s1)N1CCCC1 | -1% | 0.0 | 4.3 | 3.7 | -14 | 0.69 | -11
Cc1ccc(-c2noc(CSc3ccccc3)n2)cc1 | 2% | -3.6 | 0.2 | 1.3 | -2 | 0.72 | 7.8
CCc1ccc(/C=C2\Oc3cc(OS(C)(=O)=O)ccc3C2=O)cc1 | . | -0.5 | -0.1 | -0.2 | 0 | 0.73 | -1.9
CCC1Sc2ccc(S(=O)(=O)Nc3cc(OC)cc(OC)c3)cc2NC1=O (stereo unspecified) | . | 1.3 | -2.7 | 2.1 | 2 | 0.7 | 2.4
CN(C)S(=O)(=O)c1ccc(C(=O)Nc2ccc(F)cc2F)cc1 | 10% | 0.0 | -0.3 | 2.9 | 10 | 0.66 | -1.6
COc1cccc(NC(=O)C2CCN(c3cnccn3)CC2)c1 | . | -1.3 | -7.9 | -10 | 8 | 0.7 | 0.0
COC(=O)c1ccc(NC(CC(C)C)C(=O)OC)c([N+](=O)[O-])c1 (stereo unspecified) | . | 0.4 | -5.8 | 2.5 | -5 | 0.63 | -2.8
Cc1nn(C)cc1/C=N/NC(=O)Cn1cncn1 | 14% | 1.0 | -1.1 | . | -1 | . | -0.3
O=C(c1ccc(=O)[nH]c1)N1CCCc2ccccc21 | 1% | 0.5 | -3.4 | -0.2 | 5 | 0.63 | -3.8
N#Cc1cccc(C(=O)N(CCc2ccccc2)Cc2cccs2)c1 | . | -0.1 | 0.6 | 7.3 | 2 | 0.66 | -3.7
COc1cc(C(=O)NC(=S)Nc2ccc3oc(=O)ccc3c2)cc(OC)c1OC | 8% | -0.6 | 4.3 | 1.0 | 14 | 0.75 | 0.0
CCN(CC)c1ccc(C(=O)OCC(=O)Nc2cc3oc4ccccc4c3cc2OC)cc1 | . | 0.6 | 1.6 | -26 | -3 | 0.75 | 2.2
